# Assay outcomes as filed in PubChem.
# miR-21 reporter = raises the signal of a miR-21 reporter; HeLa miR-21 FLuc reporter, luciferase, 48 h; Potency, µM (titrated, usually from 38.3 µM), for inactives: at the highest dose reporter change, positive = more light; 340,000 tested, under 10 active; active = well fitted rising curve with a large enough effect; inconclusive = small, poorly fitted or top-dose-only effect; inactive = no such curve, though single readings can be large or run the other way;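 also: % of control where 0% means no effect; miR-21 action dims this reporter so a rising signal means less miR-21 action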
#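 Luminescence from a firefly luciferase reporter carrying a miR-21 binding site downstream, stably expressed under a CMV promoter in HeLa cells that make miR-21 endogenously, reports miRNA modulation after 48 h compound exposure up to approximately 40uM final.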
# * marks the source's active call; other numbers are inactive results; u = inconclusive. A portion of the library; count on the stated rates, not on these rows.
SMILES,miR-21 reporter
CCC1CCc2c(sc(NC(=O)C3c4ccccc4Oc4ccccc43)c2C#N)C1 (centres undefined),21.9%
CCn1ccc2c(OCC(=O)Nc3ccc(C)c(Cl)c3)cccc2c1=O,9.6%
COc1ccccc1OCc1nnc(-c2ccccc2)o1,-53.2%
O=C(COc1ccc(F)cc1)Nc1ccc(OCc2cc(=O)n3ccsc3n2)cc1,-2.4%
Cc1ccc(-n2c(=O)c3c(c4cc(C)ccc4n3C)n(CC(=O)Nc3c(C)cccc3C)c2=O)cc1,-1.1%
COc1ccc2nc3sc(C(=O)Nc4ccccc4F)cc3cc2c1,-12.9%
COc1ccc(C)cc1NC(=O)C(=O)NCCc1sc(-c2ccc(Cl)cc2)nc1C,-2.2%
CC(=O)c1ccc(NC(=O)CSc2nccn2Cc2ccc3c(c2)OCO3)cc1,-2.7%
Cc1cccc(N2CCN(C(=O)CN3CCSc4ccccc43)CC2C)c1 (centres undefined),15.8%
CCC(=O)N1CCc2cc(S(=O)(=O)NC(CC(C)C)C(=O)NCCc3cccc(C)c3)ccc21 (centres undefined),-4.2%
O=C(CSc1nccn1Cc1ccccc1)NCc1ccc(F)cc1,0.7%
Cc1cccc(NC(=O)C2CCN(S(=O)(=O)c3c(C)noc3/C=C/c3ccco3)CC2)c1,0.2%
COc1ccc(NC(=O)c2c(-c3ccc(C)cc3)nnc3ccccc23)cc1OC,-33.4%
Cc1ccc(C(=O)c2oc3ccccc3c2NC(=O)COc2ccc(C(C)C)cc2)cc1,-1.0%
CCOC(=O)CC(NC(=O)c1cc2c(=O)n3cccc(C)c3nc2s1)c1ccc(OCC)c(OC)c1 (centres undefined),-6.0%
COc1ccc(-c2nnc(C3CCN(C(=O)c4ccccc4F)CC3)o2)cc1,-1.1%
COc1ccc(OC)c(CNC(=O)c2cnc(N(C)C)nc2)c1,0.3%
CCC(C(=O)NCCc1ccc(Cl)cc1)n1ccc2cc(S(=O)(=O)N3CCCCC3)ccc21 (centres undefined),u
COc1ccc(N2CCN(c3csc4ccccc4c3=O)CC2)cc1,-10.9%
Cc1cc(C)c(NC(=O)c2cc3c(=O)n4ccccc4nc3n2C)c(C)c1,-3.4%
N#Cc1c(NC(=O)c2cc3nc(-c4ccc(Br)cc4)cc(C(F)(F)F)n3n2)sc2c1CCCC2,-0.2%
Cc1cccc(N2CCN(c3ncnc4c3nc3n4CCCCC3)CC2)c1C,-5.4%
Cc1cccc(CNC(=O)CSCc2cnn(-c3ccccc3)c2-n2cccc2)c1,-0.3%
CCOCCCNC(=O)Cn1cc2c(n1)-c1c(oc(C(=O)N3CCCC3)c1C)CC2,-0.4%
CCn1ccc2c(OCC(=O)NCc3ccc(F)cc3)cccc2c1=O,-6.1%
Cc1ccc(CN(C(=O)c2ccc(F)cc2)c2ccccn2)o1,-6.5%
O=C(Cn1cc(SCc2cccc(C(F)(F)F)c2)c2ccccc21)N1CCCCCC1,10.2%
COc1ccc(OC)c(NC(=O)Cn2cc(S(=O)(=O)c3ccccc3)c(=O)c3cc(C)ccc32)c1,-1.0%
Cc1ccc(S(=O)(=O)NCCc2nnc3ccc(SCC(=O)Nc4c(C)cc(C)cc4C)nn23)cc1,-1.6%
COc1ccc2c(c1)c(=O)c(C(=O)c1ccc(C)cc1)cn2Cc1ccccc1F,29.3%
CCc1ccc(-n2nc(CO)c(C(=O)NC(C)c3ccc(Cl)cc3)n2)cc1 (centres undefined),-1.0%
CC(=O)Nc1ccc(NC(=O)Cn2cc3c(n2)CCCCC3)cc1,-10.2%
COc1ccc(-n2cc(C(=O)Oc3cc(C)cc(C)c3)c3ccccc3c2=O)cc1,-3.5%
CCn1c(=O)c2cc(C(=O)NCc3cc(OC)ccc3OC)sc2c2ccccc21,0.4%
COc1ccc(NC(=O)C2CCN(c3nc4ccccc4[nH]3)CC2)cc1OC,7.0%
Fc1ccc(-c2nc(Nc3cccc(Cl)c3)nc3c2COc2ccccc2-3)cc1,-46.7%
CC(C)c1ccc(CNc2nc(-c3ccco3)nn2C(=O)c2ccc([N+](=O)[O-])cc2)cc1,-65.4%
Cc1c(NC(=O)C(C)(C)C)cccc1-c1nc2ccccc2s1,-23.0%
Cc1sc(C2C(C#N)=C(N)N(c3cccc(Cl)c3)C3=C2C(=O)CCC3)cc1CN1CCOCC1 (centres undefined),-1.5%
COC(=O)c1ccc(NC(=O)c2cc(S(=O)(=O)N3CCc4ccccc43)cn2C)cc1,29.7%
Cc1cc(C)c2c(=O)cc(C(=O)NCc3ccc(S(N)(=O)=O)cc3)oc2c1,-17.4%
COc1ccc(OC)c(S(=O)(=O)NCC(c2ccc(N(C)C)cc2)N2CCOCC2)c1 (centres undefined),2.2%
Cc1ccc2c(c1)N(C(=O)NCc1ccccc1)CCO2,-0.5%
Cc1cccc(N2CCN(C(=O)c3ccc4nc(N5CCC(C)CC5)sc4c3)CC2)c1C,-36.5%
CCc1cccc(NC(=O)CSC2=Nc3ccccc3N=C(c3ccc(F)cc3)C2)c1,24.4%
Cc1ccc(C)c(Cn2c(C(=O)O)c(CNCc3cccs3)c3ccccc32)c1,5.4%
Cn1c(=O)c2c(-c3ccccc3Br)n(C(C)(C)C)cc2n(C)c1=O,7.8%
CCCNc1ncnc2c1c(-c1ccccc1)cn2-c1ccc(OCC)cc1,1.5%
COc1cccc2cc(C(=O)NCCc3c(C)[nH]c4ccc(F)cc34)c(=O)oc12,-11.1%
CCn1nc(-c2ccccc2)c(-c2ccccc2)c(C(=O)Nc2nc(C)c(C(C)=O)s2)c1=O,29.4%
CC(C)(C)c1ccc(OCCn2cc(C(=O)c3ccco3)c3ccccc32)cc1,18.7%
CC1=C(C(=O)Nc2ccccc2C)C(c2cccs2)n2nc(SCc3ccccc3)nc2N1 (centres undefined),-10.8%
COc1ccc(-n2nc3c(c2NC(=O)C(=O)N2CCN(C)CC2)CSC3)cc1,-2.2%
COc1ccc(-c2cc(C(F)(F)F)nc(SCC(=O)N3CCCCC3C)n2)cc1OC (centres undefined),-6.0%
CCc1ccccc1NC(=O)CCCn1c(=O)c2cccn2c2ccccc21,u
COc1ccc(N2Cc3cccc(C(=O)Nc4cccc(F)c4)c3C2=O)cc1,-6.5%
CCOc1ccccc1NC(=O)Cn1c(=O)n(Cc2ccco2)c(=O)c2ccc(C(=O)NC3CCCC3)cc21,-1.6%
Cc1cccc(CNC(=O)c2ccc(Cn3c(SCc4ccccc4)nc4cccnc43)cc2)c1,-11.3%
CC1CCN(c2nc3ccccc3nc2SCC(=O)Nc2ccccc2C(C)C)CC1,10.1%
CCOC(=O)c1sc2ccccc2c1S(=O)(=O)Nc1c(C)cccc1C,26.1%
# New compounds follow
SMILES,miR-21 reporter
COc1ccc(OCC(=O)NCc2ccc3c(c2)CCN3C(=O)c2cccc(C)c2)cc1,u
CCOc1ccc(S(=O)(=O)N2CCN(c3ccc(Cl)c(Cl)c3)CC2)c2ccccc12,-0.4%
COc1cccc(-c2cc(C(F)(F)F)nc(NCCc3ccccc3)n2)c1,-23.6%
COC(=O)c1ccc(Nc2nnc(-c3ccc(C)c(S(=O)(=O)N4CCN(C)CC4)c3)c3ccccc23)cc1,-0.4%
COc1ccc(-n2c(=O)c3sc4ccccc4c3n(CC(=O)Nc3ccccc3F)c2=O)cc1,1.1%
COc1cccc(N2CCN(C(=O)C3CCN(S(=O)(=O)c4c(C)noc4C)CC3)CC2)c1,0.8%
CCC(=O)N1CCc2cc(Br)cc(S(=O)(=O)CCC(=O)Nc3ccc(C)c(F)c3)c21,4.9%
CCCNS(=O)(=O)c1ccc2nc(NC(=O)c3ccc(F)cc3)sc2c1,0.8%
Cc1cc(C)cc(NC(=O)c2sc3nc4n(c(=O)c3c2C)N=C(c2ccc(F)cc2)CS4)c1,-4.0%
COc1ccc(OC)c(CNc2ncc(-c3ccc(Cl)cc3)n2C)c1,0.3%
O=C(c1ccco1)N(Cc1cccs1)c1ccc(F)cc1,2.5%
Fc1cccc(Cl)c1CNCCSc1nnnn1-c1ccccc1,-14.7%
O=C(Nc1ccc(Cl)cc1Cl)c1cc(S(=O)(=O)N2CCC3(CC2)OCCO3)ccc1F,3.9%
CCOC(=O)c1cc(-c2ccc(C)cc2)n(CCC(=O)Nc2nc3c(C)cccc3s2)c1C,24.7%
CCn1c(=O)cc(SCC(=O)NCCc2cccc(C)c2)c2ccccc21,-0.7%
CCN(CC)S(=O)(=O)c1ccc2c(c1)c(=O)c(C(=O)N1CCN(c3cc(Cl)ccc3C)CC1)cn2C,0.5%
COc1cccc(-c2nc(SCC(=O)NC3CCCC3)c(-c3ccc(F)cc3)[nH]2)c1,28.9%
Cc1cc(C)cc(Nc2cc(C)nc3nncn23)c1,-1.1%
CCc1ccccc1NC(=O)Cn1nc(CC)n2c(cc3sccc32)c1=O,-4.5%
CCOC(=O)C1=C(CN(CC)Cc2ccccc2)NC(=O)NC1c1ccc(Cl)cc1 (centres undefined),24.7%
CC(C)Oc1ccc(C(=O)Nc2ccc(-c3nc4ccccc4s3)cc2)cc1,-34.1%
CCc1ccc(NC(=O)CCS(=O)(=O)c2cc3c(cc2Cl)NC(=O)CO3)cc1,-9.0%
Cc1ccccc1N1CCN(S(=O)(=O)c2nnc(NC(=O)c3ccccc3)s2)CC1,-7.9%
COc1ccc(CNC(=O)c2cc3ccccn3n2)cc1OC,-11.3%
O=C(Nc1ccc(S(=O)(=O)Nc2ncccn2)cc1)c1cc(=O)c2ccccc2o1,-1.2%
CCCSCCCNC(=O)C1CCN(C(=O)c2cnn(-c3ccccc3)c2-n2cccc2)CC1,14.8%
CCc1nnc2c(Nc3ccc(N(CC)CC)cc3C)nc3ccccc3n12,0.6%
COc1ccc(S(=O)(=O)N2CCC(C(=O)Nc3ccc(Oc4ccccc4)cc3)CC2)cc1,1.0%
COc1ccc2c(c1)CC(C(=O)Nc1ccc(OC)cc1OC)CO2 (centres undefined),-4.6%
CC(C)N(Cc1ccccc1)C(=O)C1CCCN(c2ncnc3onc(-c4ccc(F)cc4)c23)C1 (centres undefined),24.9%
COc1ccccc1C(=O)Nc1c(C(=O)c2ccccc2)oc2ccccc12,-18.7%
COc1ccc(NC(=O)CN2C(=O)CC(c3ccc(C)c(C)c3)=Nc3ccccc32)cc1OC,-14.4%

# By substructure, the compounds so far containing a Cl atom.
SMILES,miR-21 reporter
CCn1ccc2c(OCC(=O)Nc3ccc(C)c(Cl)c3)cccc2c1=O,9.6%
COc1ccc(C)cc1NC(=O)C(=O)NCCc1sc(-c2ccc(Cl)cc2)nc1C,-2.2%
CCC(C(=O)NCCc1ccc(Cl)cc1)n1ccc2cc(S(=O)(=O)N3CCCCC3)ccc21 (centres undefined),u
CCc1ccc(-n2nc(CO)c(C(=O)NC(C)c3ccc(Cl)cc3)n2)cc1 (centres undefined),-1.0%
Fc1ccc(-c2nc(Nc3cccc(Cl)c3)nc3c2COc2ccccc2-3)cc1,-46.7%
Cc1sc(C2C(C#N)=C(N)N(c3cccc(Cl)c3)C3=C2C(=O)CCC3)cc1CN1CCOCC1 (centres undefined),-1.5%
CCOc1ccc(S(=O)(=O)N2CCN(c3ccc(Cl)c(Cl)c3)CC2)c2ccccc12,-0.4%
COc1ccc(OC)c(CNc2ncc(-c3ccc(Cl)cc3)n2C)c1,0.3%
Fc1cccc(Cl)c1CNCCSc1nnnn1-c1ccccc1,-14.7%
O=C(Nc1ccc(Cl)cc1Cl)c1cc(S(=O)(=O)N2CCC3(CC2)OCCO3)ccc1F,3.9%
CCN(CC)S(=O)(=O)c1ccc2c(c1)c(=O)c(C(=O)N1CCN(c3cc(Cl)ccc3C)CC1)cn2C,0.5%
CCOC(=O)C1=C(CN(CC)Cc2ccccc2)NC(=O)NC1c1ccc(Cl)cc1 (centres undefined),24.7%
CCc1ccc(NC(=O)CCS(=O)(=O)c2cc3c(cc2Cl)NC(=O)CO3)cc1,-9.0%
